# YopH PTP inh: YopH tyrosine phosphatase inhibitors, primary screen, biochemical, fluorescence Ex485/Em525; inhibition, %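 (about 10 µM by stock and volumes)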; 140,000 tested, 0.16% active;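 active means inhibition of 50% or more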;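 further: controls were vehicle for no effect and minimum signal wells for full effect; inactives centre near -20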
# RecA intein inh: Mtb RecA intein splicing inhibitors, primary screen, biochemical, fluorescence, HTS. Protein RecA (Mycobacterium tuberculosis (strain ATCC 25618 / H37Rv)), P9WHJ3. cell-free RecA intein splicing. inhibition, %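 (about 9 µM by stock and volumes)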. 290,000 tested, 0.75% active; in the data active means inhibition above about 30%; inconclusive means no clear call, values can overlap the other calls;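 further: 0% = vehicle wells and 100% = reference inhibitor control wells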
# Target sequence (P9WHJ3 whole entry, looked up): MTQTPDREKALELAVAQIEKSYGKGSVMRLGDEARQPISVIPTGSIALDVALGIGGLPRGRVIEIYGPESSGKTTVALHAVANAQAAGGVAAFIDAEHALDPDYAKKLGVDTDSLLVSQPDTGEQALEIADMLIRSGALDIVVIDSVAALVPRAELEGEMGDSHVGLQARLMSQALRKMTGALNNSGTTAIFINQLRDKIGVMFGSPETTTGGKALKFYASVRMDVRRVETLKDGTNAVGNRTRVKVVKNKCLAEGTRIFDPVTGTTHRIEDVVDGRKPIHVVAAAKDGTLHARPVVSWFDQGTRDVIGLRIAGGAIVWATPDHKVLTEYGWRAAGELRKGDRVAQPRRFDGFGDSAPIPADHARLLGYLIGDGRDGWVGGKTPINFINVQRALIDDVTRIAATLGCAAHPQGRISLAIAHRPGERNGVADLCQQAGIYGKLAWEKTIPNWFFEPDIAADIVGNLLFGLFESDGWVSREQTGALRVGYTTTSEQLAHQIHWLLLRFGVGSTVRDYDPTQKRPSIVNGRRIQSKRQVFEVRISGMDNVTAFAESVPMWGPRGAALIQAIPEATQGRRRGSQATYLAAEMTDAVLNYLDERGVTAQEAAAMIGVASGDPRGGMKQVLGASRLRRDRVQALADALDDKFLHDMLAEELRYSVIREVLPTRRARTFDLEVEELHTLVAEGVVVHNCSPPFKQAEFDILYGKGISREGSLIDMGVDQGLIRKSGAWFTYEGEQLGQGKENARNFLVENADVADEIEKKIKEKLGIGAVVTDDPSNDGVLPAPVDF
# Arbovirus inh: antivirals against arbovirus infection, primary screen, cell-based, full library, 10K replicate subset; arbovirus infection cell-based antiviral screen; inhibition, % at 10 µM; 200,000 tested, 0.37% active;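 active means inhibition from about 30%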;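 further: bluetongue infection of BSR cells; cell survival read as ATP light after 72 h; 0% = infected wells without compound and 100% = uninfected wells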
# Mtb betalactam: beta-lactam sensitization of Mtb H37Rv, H37Rv. 330,000 tested, 0.27% active. M. tuberculosis H37Rv growth with meropenem, percent inhibition; hits of this screen are not shown here. inhibition, % at 25 µM;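 active means about 74% or more and at least 40 points above the plate without the antibiotic, then above 30% in a dose series; inconclusive means first-round hits that could not be retested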;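 further: growth measured after seven days incubation then overnight dye step; 0% = bacteria only wells and 100% = bacteria with antibiotic; twin plates without the antibiotic show which effects depend on it; some results filed as inactive read as strong as hits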
# Mtb H37Rv: M. tuberculosis H37Rv growth inhibitors, H37Rv strain (AID 1626); M. tuberculosis H37Rv growth inhibition; higher % means a stronger effect; 220,000 tested, 0.95% active; inhibition, % at 10 µM; hits with a dose series show IC50 in µM;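 active means confirmed in a dose series; inconclusive means inhibition above 80% but not taken into the dose series; inactive means below 80% or under 30% at every dose of the series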;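 further: bacteria incubated seven days before Alamar blue readout; 0% = bacteria only wells and 100% = bacteria with antibiotic wells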
# Arbovirus inh repeat: second read-out of Arbovirus inh, no call of its own (marks repeat the call); inhibition, %; measured here: 10K subset replicate screen; many hits read low in the repeat;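 first of two repeat runs on a subset; 0% = infected and 100% = uninfected wells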
# An asterisk follows results filed as active; u = inconclusive; x = not tested or not shown. A portion of the library; the hit share may differ from the screen's.
SMILES,YopH PTP inh,RecA intein inh,Arbovirus inh,Mtb betalactam,Mtb H37Rv,others
COc1ccc(C(=O)N(c2ccc(C)cc2)C2C=CS(=O)(=O)C2)cc1OC (stereo unspecified),x,-0.4,4,-7,1%,
CC1(c2ccccc2)NC(=O)N(CC(=O)Nc2ccccc2C(=O)N2CCCCC2)C1=O (stereo unspecified),x,-2.8,x,4,x,
COc1ccc(CNC(=O)C2CCN(C(=O)N3CCOc4ccc(C)cc43)CC2)cc1,-34,x,7,-8,-8%,
Cc1ccc(S(=O)(=O)N2CCN(C(=O)c3ccccc3-c3nc4ccccc4s3)CC2)c(C)c1,x,-3.0,x,1,x,
CCc1ccc(OCCCC(=O)Nc2ccc(S(N)(=O)=O)cc2)cc1,x,1.0,-3,0,3%,
COc1ccccc1NC(=O)C1=C(C)NC(=O)NC1c1ccc(C)s1 (stereo unspecified),x,1.6,1,14,-21%,
COc1ccc(/C(O)=C2/C(=O)C(=O)N(CC3CCCO3)C2c2cccc(O)c2)cc1 (stereo unspecified),-25,1.0,4,-15,x,
O=C(COC(=O)Cc1ccccc1F)NNC(=O)c1ccc(Cl)cc1,x,-0.4,x,-6,x,
O=[N+]([O-])c1ccc(N2CCN(c3ccccc3O)CC2)cc1,x,-0.8,x,-6,x,
Cc1cccc(NC(=O)c2cccc(NC(=O)c3ccco3)c2)c1C,x,0.5,x,0,x,
CCn1cnc2scc(-c3ccccc3)c2c1=O,-9,4.9,-4,-2,-2%,
Cc1noc(C)c1S(=O)(=O)N(C)Cc1ccccc1,x,-1.1,-4,2,-2%,
CN(CC(=O)NCCc1ccc(F)cc1)Cc1cccc(Cl)c1,x,4.0,16,-7,-2%,
CC1=C(C(=O)Nc2ccccc2C(=O)NC2CCCCC2)SCCO1,x,-1.9,x,-6,x,
CCNCCC(=O)N1c2ccccc2Sc2ccc(NC(=O)OCC)cc21,-27,0.3,-12,-3,-5%,
CCc1ccc(NC(=S)N2CCC(NC(=O)c3ccccc3OC)CC2)cc1,x,2.5,x,4,x,
CC(OC(=O)/C=C/c1ccccc1Cl)C(=O)NC1CCCCC1C (stereo unspecified),x,-5.5,x,-5,x,
Cc1cccc(NC(=O)CSc2nc(=O)n3ccccc3n2)c1C,x,1.1,x,2,x,
CCc1nc(SCC(=O)O)c(C#N)cc1C,-46,-0.1,0,-1,-5%,
O=C(N/N=C\c1cccnc1)c1ccc(Br)s1,x,-0.7,x,-3,x,
Cc1ccccc1/C=N/Nc1nc2ccccc2[nH]1,x,-0.7,4,65,4%,
CC(C)[C@H](NC(=O)NCc1ccc(F)cc1)C(=O)O,x,1.0,x,0,-5%,
CCCSc1nnc(CSc2nc(C)cc(C)n2)n1C,x,3.1,2,-9,0%,
CCOC(=O)C(CSCC(=O)c1ccc(Cl)cc1Cl)NC(=O)OC(C)(C)C (stereo unspecified),8,9.1,1,57,-1%,
COc1cc(S(=O)(=O)NCc2cccnc2)c(OC)cc1Br,-17,-0.7,-3,0,0%,
SMILES,YopH PTP inh,RecA intein inh,Arbovirus inh,Mtb betalactam,Mtb H37Rv,others
CN(C)S(=O)(=O)c1ccc(NC(=O)C2CCCN(C(=O)c3ccc(Cl)cc3)C2)cc1 (stereo unspecified),-17,-2.2,-5,-7,2%,
COc1ccc(NC(=O)CCNC(=O)Cn2ccc3ccccc3c2=O)cc1OC,x,2.4,x,-9,x,
O=C(CCCN1C(=O)/C(=C/c2ccccc2Cl)SC1=S)N1CCOCC1,x,3.2,x,-3,x,
C=CCN1C=C2C(=O)C(C)(OC(=O)CCc3ccccc3)C(=O)C=C2C=C1c1ccc(C#N)cc1 (stereo unspecified),x,-4.3,x,-4,-12%,
O=C(c1ccccn1)N1CCCC(N2CCN(c3ccc(F)cc3)CC2)C1 (stereo unspecified),x,-0.3,x,1,x,
Cc1ccc2ncccc2c1NS(=O)(=O)c1ccccc1,-20,1.6,4,-4,-4%,
O=C(/C=C/c1cccc([N+](=O)[O-])c1)N1CCN(c2ccccn2)CC1,x,0.8,x,1,x,
Cc1n[nH]c(C)c1S(=O)(=O)N1CCCC(C(=O)Nc2ccc3c(c2)OCCO3)C1 (stereo unspecified),-12,x,-2,-3,x,
Nc1c(N(CCC2=CCCCC2)C(=O)c2ccco2)c(=O)[nH]c(=O)n1Cc1ccccc1,x,8.3,x,2,x,
CC(C)CCNC(=O)C1CCN(S(=O)(=O)c2ccc3c(c2)CC(C)N3C(=O)C2CCC2)CC1 (stereo unspecified),x,0.5,x,4,x,
Cc1ccccc1C(=O)Nc1ccc2c(c1)OCO2,-36,4.0,-7,-8,-11%,
COc1ccc(-c2cc(C3CCN(c4ncccc4[N+](=O)[O-])CC3)[nH]n2)cc1,-13,5.0,-24,84,u,
CCC(C(=O)NC1CCCC1)N(C(=O)Cn1nnc(-c2ccc(C)o2)n1)c1cccc(O)c1 (stereo unspecified),x,2.8,x,-1,x,
Cc1ccc(C(=O)N2CCN(S(=O)(=O)N3CCCCCC3)CC2)cc1,x,-1.9,x,0,x,
COc1ccc(/C=C2/SC(=O)N(CCC(=O)Nc3ccccc3C(=O)O)C2=S)cc1,x,22,x,9,x,
COc1ccc(C(=O)N/N=C(\C)CC(=O)Nc2ccc3c(c2)OCCO3)c(OC)c1,x,-3.2,x,1,x,
COc1ccc(-n2c3c(c(=O)[nH]c2=O)C(C(F)(F)F)(C(F)(F)F)N=C(CC(C)C)N3)cc1,-6,1.2,-5,3,-14%,
O=C(c1cnn2c1NC(c1ccc(Br)cc1)CC2C(F)(F)F)N1CCN(C23CC4CC(CC(C4)C2)C3)CC1 (stereo unspecified),-38,5.3,-17,14,-4%,
CC(=O)c1[nH]c(C)c(C(C)=O)c1C,-28,-1.0,0,-8,-9%,
Cc1c(C(=O)Nc2c3c(nn2C(C)(C)C)CS(=O)(=O)C3)cccc1[N+](=O)[O-],x,-2.7,x,8,x,
Cc1ccc(C(=O)Cn2cccn2)cc1,x,0.2,4,3,-4%,
NC(=O)c1sc2nc3c(c(-c4cccs4)c2c1N)CCCC3,-31,-12,28,x,0%,
COc1ccc(N2CCN(c3ccc(C(N)=O)cc3[N+](=O)[O-])CC2)cc1,x,-1.9,2,-15,7%,
CC1CCCN(S(=O)(=O)c2ccc(C(=O)Nc3ccccc3-c3nc4ccccc4[nH]3)cc2)C1 (stereo unspecified),-13,-0.5,-21,4,-1%,
COc1ccc2[nH]cc(C(=O)CN(C)C)c2c1,x,5.8,x,-3,-3%,

# 3 structures from above, ordered by molecular weight, highest first.
SMILES,YopH PTP inh,RecA intein inh,Arbovirus inh,Mtb betalactam,Mtb H37Rv,others
COc1ccc(C(=O)N/N=C(\C)CC(=O)Nc2ccc3c(c2)OCCO3)c(OC)c1,x,-3.2,x,1,x,
O=C(CCCN1C(=O)/C(=C/c2ccccc2Cl)SC1=S)N1CCOCC1,x,3.2,x,-3,x,
COc1ccc(-c2cc(C3CCN(c4ncccc4[N+](=O)[O-])CC3)[nH]n2)cc1,-13,5.0,-24,84,u,

# Arranged by length of the SMILES (low to high): some entries from above.
SMILES,YopH PTP inh,RecA intein inh,Arbovirus inh,Mtb betalactam,Mtb H37Rv,others
Cc1ccc(C(=O)Cn2cccn2)cc1,x,0.2,4,3,-4%,
CC(=O)c1[nH]c(C)c(C(C)=O)c1C,-28,-1.0,0,-8,-9%,
Cc1ccccc1C(=O)Nc1ccc2c(c1)OCO2,-36,4.0,-7,-8,-11%,
COc1ccc2[nH]cc(C(=O)CN(C)C)c2c1,x,5.8,x,-3,-3%,
Cc1ccc2ncccc2c1NS(=O)(=O)c1ccccc1,-20,1.6,4,-4,-4%,
NC(=O)c1sc2nc3c(c(-c4cccs4)c2c1N)CCCC3,-31,-12,28,x,0%,
Cc1ccc(C(=O)N2CCN(S(=O)(=O)N3CCCCCC3)CC2)cc1,x,-1.9,x,0,x,
COc1ccc(NC(=O)CCNC(=O)Cn2ccc3ccccc3c2=O)cc1OC,x,2.4,x,-9,x,
O=C(/C=C/c1cccc([N+](=O)[O-])c1)N1CCN(c2ccccn2)CC1,x,0.8,x,1,x,
COc1ccc(C(=O)N/N=C(\C)CC(=O)Nc2ccc3c(c2)OCCO3)c(OC)c1,x,-3.2,x,1,x,
Cc1n[nH]c(C)c1S(=O)(=O)N1CCCC(C(=O)Nc2ccc3c(c2)OCCO3)C1 (stereo unspecified),-12,x,-2,-3,x,
CN(C)S(=O)(=O)c1ccc(NC(=O)C2CCCN(C(=O)c3ccc(Cl)cc3)C2)cc1 (stereo unspecified),-17,-2.2,-5,-7,2%,
CCC(C(=O)NC1CCCC1)N(C(=O)Cn1nnc(-c2ccc(C)o2)n1)c1cccc(O)c1 (stereo unspecified),x,2.8,x,-1,x,
Cc1c(C(=O)Nc2c3c(nn2C(C)(C)C)CS(=O)(=O)C3)cccc1[N+](=O)[O-],x,-2.7,x,8,x,
CC(C)CCNC(=O)C1CCN(S(=O)(=O)c2ccc3c(c2)CC(C)N3C(=O)C2CCC2)CC1 (stereo unspecified),x,0.5,x,4,x,
C=CCN1C=C2C(=O)C(C)(OC(=O)CCc3ccccc3)C(=O)C=C2C=C1c1ccc(C#N)cc1 (stereo unspecified),x,-4.3,x,-4,-12%,
COc1ccc(-n2c3c(c(=O)[nH]c2=O)C(C(F)(F)F)(C(F)(F)F)N=C(CC(C)C)N3)cc1,-6,1.2,-5,3,-14%,
O=C(c1cnn2c1NC(c1ccc(Br)cc1)CC2C(F)(F)F)N1CCN(C23CC4CC(CC(C4)C2)C3)CC1 (stereo unspecified),-38,5.3,-17,14,-4%,

# Other structures follow:
SMILES,YopH PTP inh,RecA intein inh,Arbovirus inh,Mtb betalactam,Mtb H37Rv,others
COc1ccc2c(c1OC)C(=O)OC2Nc1nc2ccccc2s1 (stereo unspecified),x,-4.1,x,-3,-10%,
CC1CC(C)(C)n2c(O)c(N=NC(N)=S)c3cccc1c32 (stereo unspecified),x,-1.4,x,x,70%,
Cc1ccc(S(=O)(=O)NCC(=O)OCC(=O)N(Cc2ccccc2)C(C)(C)C)cc1,-26,-0.8,-9,-2,-3%,
CN(c1ccc(C(=O)N2CCN(Cc3ccc4c(c3)OCO4)CC2)cc1)S(C)(=O)=O,x,-2.0,5,-4,-3%,
CCOC(=O)c1sc(NC(=O)CSc2nc3cccnc3n2C)nc1C,x,1.3,x,3,x,
O=C(O)c1cccc(NS(=O)(=O)c2cccc3cccnc23)c1,-35,-0.2,9,1,-11%,Arbovirus inh repeat=2
Cc1ccc(OCCC(=O)OCC(=O)N2CCN(S(=O)(=O)c3ccc(C)cc3)CC2)cc1,x,-4.0,x,2,x,
Cc1ccc(-c2nnc(-c3cccc(NC(=O)c4cccs4)c3)o2)cc1,-28,4.3,-3,8,4%,
CC(C)(C)c1cc(C(=O)O)nn1-c1ccccc1,-18,0.4,10,-8,-8%,
C/C(Cn1cnc([N+](=O)[O-])n1)=N\NC(=O)c1ccccc1O,x,-1.9,6,26,-5%,
CC(=O)Nc1nc(NC(=O)/C=C/c2ccccc2)n(-c2ccccc2)n1,0,1.5,-21,96,3.6µM*,
O=[N+]([O-])c1ccc(NC(=S)N2CCc3ccccc32)cc1,x,5.8,x,-2,x,
COc1ccc2c(OC)cc(=O)n(C)c2c1,-19,-2.4,-7,3,-4%,
Cc1cc(C)nc(/N=C(\N)Nc2ccc(S(=O)(=O)O)cc2)n1,x,-2.2,7,x,1%,
Cc1ccc([N+](=O)[O-])c(NC(=O)COC(=O)C2CC3CCCC(C2)C3=O)c1C (stereo unspecified),x,0.2,x,-12,x,
Cc1nc2ccc(C(C(F)(F)F)(C(F)(F)F)C(F)(F)F)cc2[nH]1,-29,-4.2,6,-3,9%,
Cc1ccccc1C(=O)NCCNC(=O)c1ccccn1,x,-2.9,x,5,x,
CS(=O)(=O)c1nc(S(=O)(=O)c2ccc(Cl)cc2)c(NCCCN2CCOCC2)s1,x,-9.0,x,1,x,
CSc1ccccc1C(=O)NC1CCCC1,-10,x,-4,-8,-2%,
CC(C)C(=O)Nc1ccccc1C(=O)OCC(=O)c1ccc2c(c1)OCCO2,-12,-1.1,0,9,8%,
O=C(NC12CC3CC(CC(C3)C1)C2)C12CC3CC(C1)CC(n1cnc(Cl)n1)(C3)C2,-34,-1.8,-6,-13,-2%,
CCN(CC)C(=O)c1ccc(NC(=O)COc2ccccc2F)cc1,x,-2.9,-2,4,2%,
COc1ccc(CN2C(=NC(=O)C3CC3)SC3CS(=O)(=O)CC32)cc1 (stereo unspecified),x,2.0,x,-1,x,
O=C(C1CCCCC1)N(CCN1CCCC1)c1nc2ccccc2s1,8,0.5,9,-4,x,
Cc1ccc(Cl)cc1N1CCN(C(=O)C2CCC(=O)N(C3CCCCCC3)C2)CC1 (stereo unspecified),x,3.3,x,u,x,

# Compound activity deposited in PubChem BioAssay by several laboratories.
